Cruzain noTriton – qHTS Assay for Promiscuous and Specific Inhibitors of Cruzain (without detergent) | purified cruzain, Z-FR-AMC fluorescence, no detergent | hit rate 2.3% among 200,000 | Potency, µM, without a hit: max response, negative = inhibition, usual class: inhibitors | Cruzipain (Trypanosoma cruzi), P25779 | AID 1476, 2009; active means well fitted curve in the direction sought with a large enough effect; inconclusive means small, poorly fitted or top-dose-only effect, or another doubt; inactive means no such curve, though single readings can be large; an effect the other way counts as inactive or inconclusive;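 further: plate controls were enzyme without inhibitor for no effect and buffer without enzyme for full effect; nearly all actives have a fitted effect of over 40% in size; top concentration of the series not given in the record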
Target sequence (P25779 123-467 limits assumed): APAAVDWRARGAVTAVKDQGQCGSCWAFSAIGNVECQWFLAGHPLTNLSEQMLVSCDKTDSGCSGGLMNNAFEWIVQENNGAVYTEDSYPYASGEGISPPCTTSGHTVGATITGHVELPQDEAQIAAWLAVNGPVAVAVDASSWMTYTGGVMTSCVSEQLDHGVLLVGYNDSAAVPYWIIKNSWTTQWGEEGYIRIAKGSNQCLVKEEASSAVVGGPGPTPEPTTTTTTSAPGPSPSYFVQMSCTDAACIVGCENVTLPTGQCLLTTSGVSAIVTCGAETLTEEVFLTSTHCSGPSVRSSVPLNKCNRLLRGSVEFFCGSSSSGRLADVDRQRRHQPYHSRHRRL
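Purified cruzain at 1.5 nM, pre-incubated 15 min with compound at room temperature in 100 mM sodium acetate pH 5.5, 5 mM DTT, 0.00005% Triton X-100. Reaction started with 2 uM Z-FR-AMC; AMC fluorescence increase over 60 s gives rate.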
StopGo reporter – High Throughput Screening for Foot and Mouth Disease Virus Antivirals; hit rate 1.2% among 410,000; human cells with a luciferase reporter of 2A StopGo recoding; control for the full effect not named in the record; Potency, µM (doses to about 57.9 µM), for the others: at the top dose signal change, negative = less light; active = well fitted falling curve with a large enough effect; inconclusive = small, poorly fitted or top-dose-only effect; inactive = no such curve, though single readings can be large or run the other way; tested in HEK293T cells; further: on the % scale 0 is the no-effect control and ±100 the full control effect; nearly all actives have a fitted effect of over 45% in size; luciferase light after 4 h
Marburg entry inh – qHTS for inhibitors of binding or entry into cells for Marburg Virus; Marburg virus pseudotyped entry inhibition, cell reporter; control for the full effect not named in the record; about a third of the inactives were read at about 46 µM; Potency, µM (highest dose often 37.8 µM), for inactives: at the top dose activity change, negative = inhibition, hits mostly inhibitors; hit rate 1.8% among 300,000; active = well fitted inhibition curve with a large enough effect; inconclusive = small, poorly fitted or top-dose-only effect, or effect the other way; inactive = flat fitted curve, though single readings scatter; tested in HEK293 cells; about a fifth of its hits are not listed in these tables; further: on the % scale 0 is the no-effect control and ±100 the full control effect; luciferase read-out
Cruzain inh Det – qHTS Assay for Promiscuous and Specific Inhibitors of Cruzain (with detergent) | AID 1478, 2009 | Cruzipain (Trypanosoma cruzi), P25779 | purified cruzain, Z-FR-AMC fluorescence, 0.01% Triton | hit rate 0.43% among 200,000 | Potency, µM, for inactives: max response, negative = inhibition, most hits filed as inhibitors; active means well fitted curve in the direction sought with a large enough effect; inconclusive means small, poorly fitted or top-dose-only effect, or another doubt; inactive means no such curve, though single readings can be large; an effect the other way counts as inactive or inconclusive;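 further: plate controls were neutral wells for no effect and buffer without enzyme for full effect; nearly all actives have a fitted effect of over 40% in size; top concentration of the series not given in the record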
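Cysteine protease activity tested under reducing, mildly acidic conditions (100 mM sodium acetate pH 5.5, 5 mM DTT) plus 0.01% Triton X-100. Cruzain 1.5 nM; substrate Z-FR-AMC 2 uM; 15 min compound preincubation at room temperature.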
SARS PLP yeast – qHTS of Yeast-based Assay for SARS-CoV PLP. S. cerevisiae expressing SARS-CoV PLpro, growth rescue; control for the full effect not named in the record. hit rate 0.19% among 330,000. Potency, µM (doses to about 32.9 µM), without a hit: at the highest dose activity, positive = growth rescue; further: 0% is about no effect; nearly all actives have a fitted effect of over 55% in size; growth read by luminescence after 48 h
LASV entry inh – qHTS for Inhibitors of binding or entry into cells for Lassa Virus | Lassa virus pseudotype entry inhibition, cell reporter; control for the full effect not named in the record | Potency, µM (highest dose often 37.9 µM), without a hit: at the top dose activity change, negative = inhibition, most hits filed as inhibitors | hit rate 1.2% among 300,000; active means well fitted inhibition curve with a large enough effect; inconclusive means small, poorly fitted or top-dose-only effect, or effect the other way; inactive means flat fitted curve, though single readings scatter; tested in HEK293 cells; further: on the % scale 0 is the no-effect control and ±100 the full control effect; nearly all actives have a fitted effect of over 50% in size; luciferase read-out
RE007 growth inh – qHTS Assay for Inhibitors of the HIV-1 protein Vpr; S. pombe RE007 Vpr strain, BacTiter-Glo ATP luminescence, 24 h; control for the full effect not named in the record; Potency, µM (top dose mostly 92.2 µM), for inactives: top-dose activity change, negative = less growth; hit rate 0.21% among 360,000; active = well fitted falling curve with a large enough effect; inconclusive = small, poorly fitted or top-dose-only effect; inactive = no such curve, though single readings can be large or run the other way;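 further: on the % scale 0 is the no-effect control and ±100 the full control effect; nearly all actives have a fitted effect of over 50% in size; the assay follows cell death caused by Vpr and the record does not say whether a fall means rescue or toxicity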
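Fission yeast strain RE007, carrying one chromosomally integrated HIV-1 vpr copy, was seeded at OD 0.01 in PMG+AL medium with 23 nL pinned compound. After 24 h at 30 °C and 99% humidity, viability was read by BacTiter-Glo luminescence.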
NS1 function inh – qHTS Assay for Inhibitors of Influenza NS1 Protein Function; AID 2326, 2010; S. cerevisiae slowed by influenza A NS1, growth recovery by OD600; hit rate 0.4% among 270,000; Potency, µM (titrated, usually from 46.1 µM), inactives show top-dose activity, positive = more growth; further: actives are rising curves; nearly all actives have a fitted effect of over 50% in size
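Growth recovery, yeast-based: influenza A NS1 expressed in S. cerevisiae causes slow growth, and suppressors are detected by OD600. The parent strain without NS1 is used as positive control.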
Active calls of the source: *; ? = inconclusive; nt = no result given; & = joins results of further samples; [ ] = another dose, or the depositor's remark. Unless noted, the call rests on the fitted dose curve; in most records, active means well fitted rising curve with a large enough effect; inconclusive means small, poorly fitted or top-dose-only effect; inactive means no such curve, though single readings can be large or run the other way. Potency means the concentration at half of the fitted maximal effect.

Compound | Cruzain noTriton | StopGo reporter | Marburg entry inh | Cruzain inh Det | SARS PLP yeast | LASV entry inh | RE007 growth inh | NS1 function inh
CCOc1ccc(OCCSc2nc3ccccc3n2CC(=O)O)cc1 | nt | 4.4% | nt | nt | -2.3% | nt | -20.0% | -22.9%
CC1=C(C(=O)OCC(C)C)C2(O)C(=O)c3ccccc3C2(O)N1 (stereo not drawn) | -7.0% | -22.2% | 10.9% | -2.5% | 5.1% | -23.0% | -2.1% | 5.9%
CC(C(=O)Nc1cc(C(F)(F)F)ccc1N1CCOCC1)N1C(=O)C2CC=CCC2C1=O (stereo not drawn) | 6.9% | 6.7% | 3.1% | 0.7% | -2.8% | 7.6% | 8.3% | 2.3%
Cc1cc(NC(=O)c2ccc([N+](=O)[O-])cc2Cl)ccc1NC(=O)c1ccco1 | ? | 1.6% | 24.7% | -2.9% | -11.0% | -3.5% | -10.0% | 6.3%
C[N+]1(C)C2CCC1CC(OC(=O)c1ccccc1)C2 (stereo not drawn) | nt | -21.8% | nt | nt | -1.2% | nt | -2.7% | 3.6%
Cc1ccccc1NC(=O)CSc1ccncc1 | nt | 4.9% | ? | nt | -0.1% | 0.1% | 3.7% | 0.5%
COc1cc(C2C3=C(COC3=O)Oc3cc4c(cc32)OCO4)cc(OC)c1OC (stereo not drawn) | nt | -20.7% | ? | nt | nt | ? | 9.8% | nt
O=C(O)CC1=C(c2ccc(F)cc2)CCC1=O | 3.2% | -11.5% | -20.9% | -4.9% | 3.9% | 0.3% | -5.1% | 2.5%
c1ccc(CCC2CCCCN2Cc2nc(C3CC3)no2)cc1 (stereo not drawn) | nt | -3.5% | nt | nt | 1.2% | nt | -5.2% | -7.5%
Cc1ccccc1OCCCCn1c(CCNC(=O)C(C)(C)C)nc2ccccc21 | ? | ? | ? | -7.5% | nt | -26.3%[46.1 µM] | nt | nt
COc1ccc2nc(SCC(=O)N3CCNC3=O)[nH]c2c1 | -12.7% | 18.4% | ? | 1.3% | 4.1% | 5.8% | -7.4% | -0.1%
CCCCn1nc(C(=O)Oc2ccc3c(C)cc(=O)oc3c2)c2ccccc2c1=O | 19.1% | -2.9% | ? | 37.2%[activator] | -17.5% | -8.8% | -4.3% | -1.0%
COc1ccc(C)cc1NS(=O)(=O)c1cn(C)nc1C | nt | 25.1% | -2.3%[46.1 µM] | nt | -0.4% | 16.8% | -12.8% | -1.1%
O=C(CCS(=O)(=O)c1ccccc1)NC1CCCC1 | nt | 0.0% | 7.0%[46.1 µM] | nt | 1.7% | ? | 3.0% | 21.8%
COCc1cc(=O)[nH]c(N2CCN(c3ccccc3OC)CC2)n1 | nt | -2.9% | 11.8%[46.1 µM] | nt | 4.3% | 6.2%[46.1 µM] | 10.0% | -5.8%
CC(C)CCn1c(N2CCN(Cc3ccccc3)CC2)nc2c1c(=O)[nH]c(=O)n2C | -1.7% | nt | 8.0% | 4.4% | -6.3% | nt | nt | -11.0%
Cc1ccccc1NC(=S)N(CCc1c(C)[nH]c2ccc(F)cc12)Cc1cccnc1 | nt | 10.0% | ? | nt | -3.6% | -5.1% | 4.7% | nt
CC1=CC(C)(C)n2c(O)c(C3=NC(=S)NC3=O)c3cc(OC(=O)c4cccc5ccccc45)cc1c32 | 3.16µM* | ? | -8.9% | 0.9% | 2.9% | -13.0% | 10.9% | 13.5%
Cc1cccc(S(=O)(=O)NCCC(=O)OC(C)C(=O)NC(=O)NC2CCCCC2)c1 (stereo not drawn) | 22.5% | 0.0% | -13.0% | -3.9% | 12.4% | -1.0% | -5.7% | 6.6%
CCOC(=O)c1ccc(NC(=S)N(CCCN2CCCC(C)C2)Cc2ccco2)cc1 (stereo not drawn) | -13.6% | 16.3% | ? | -1.3% | -6.5% | ? | -7.3% | -11.0%
COC(=O)c1c(Oc2ccc(OC)cc2)nnc(-c2ccccc2)c1-c1ccccc1 | -18.6% | -11.6% | ? | -1.9% | nt | ? | nt | nt
CCn1c(O)c(N=NC(=O)C2C(=O)NCC2c2ccccc2)c2ccccc21 (stereo not drawn) | -5.6% | -8.2% | -13.7% | -5.3% | -12.6% | -11.9% | 29.0% | 8.1%
CC1CCCN(C(=O)Cc2cccc3ccccc23)C1 (stereo not drawn) | nt | 5.4% | ? | nt | 4.1% | ? | 8.3% | -17.2%
CCCOc1ccc(-c2c(C(=O)N/N=C/c3ccc(C)cc3)nnn2-c2nonc2N)cc1 | nt | -14.1% | 0.7%[46.1 µM] | nt | -0.2% | ? | -9.9% | 9.3%
CCOc1ccc(C(=O)Nc2ccc(S(=O)(=O)Nc3cc(C)on3)cc2)cc1 | nt | -4.3% | nt | nt | 1.3% | nt | -21.8% | -16.9%
Cc1cc(C(=O)NC2CCCCC2)c(C)n1-c1ccc(F)cc1 | -12.7% | -14.9% | ? | -4.7% | -5.1% | ? | 31.6% | -7.4%
COc1ccccc1/C=C\C(=O)NCC(=O)N/N=C/c1ccc(O)cc1O | nt | -16.6% | ? | nt | -0.2% | 4.6% | 46.9% | -12.7%
CC(=O)Nc1ccc(S(=O)(=O)N2CCC(C(=O)c3ccc(F)cc3)CC2)cc1 | nt | -15.3% | ? | nt | 2.7% | ? | 0.8% | 2.6%
COc1ccc(CNC(=O)CC2C(=O)NCCN2CC(C)(C)C)c(OC)c1 (stereo not drawn) | nt | -12.3% | nt | nt | -0.8% | nt | 0.0% | 6.7%
Cc1ccc(S(=O)(=O)CCNC(=O)Cc2ccccc2)cc1 | nt | -14.9% | 0.2%[46.1 µM] | nt | -1.4% | -1.4% | 0.7% | nt
COc1ccccc1CC(=O)Nc1ccc(-c2noc(COc3ccc(Cl)c(C)c3)n2)cc1 | 25.1µM* | -22.9% | -25.3% | 4.0% | 8.1% | ? | 2.2% | 7.2%
COc1ccc(-c2nc3ccccc3o2)cc1NC(=O)c1ccc(-c2ccc(Br)cc2)o1 | -8.9% | 9.7% | nt | -1.8% | nt | -0.9%[46.1 µM] | nt | nt
c1ccc2c(c1)sc1nnnn12 | -13.3% | 10.4% | 10.5% | 4.1% | 6.4% | 5.9% | 13.0% | 1.4%
Nc1n[nH]c2cccc(Cl)c12 | nt | 5.8% | nt | nt | -0.2% | nt | -1.5% | -5.0%
COc1cc(/C=C2/C(=N)N3C(=NC2=O)SN=C3S(C)(=O)=O)ccc1OC(=O)c1ccco1 | nt | 13.5% | nt | nt | -0.3% | nt | -4.6% | -6.6%
CCCCN1C(=O)CN(C2CCCCC2)C(=O)C1c1ccc(OC(C)C)c(OC)c1 (stereo not drawn) | 10.8% | -16.1% | nt | -0.4% | nt | 5.1%[46.1 µM] | nt | nt
CCSc1nnc(-c2ccc(S(=O)(=O)N3CCCC3)cc2)n1C | -9.0% | nt | 18.1% | -2.5% | 0.0% | -10.6% | -0.5% | -0.4%
C=CCOc1ccccc1CNc1ccccc1C | 5.2% | -8.9% | ? | -4.9% | 16.6% | 8.2% | 9.9% | -0.5%
COc1ccc(CCN=C(C)c2cc(C)c(C)cc2O)cc1OC | nt | 30.4%[activator] | 0.5%[46.1 µM] | nt | -2.1% | -2.2%[46.1 µM] | 10.4% | 4.3%
COc1ccc(NC(=S)NC2CCCCCC2)c(OC)c1 | 13.6% | -0.2% | 20.6% | -1.8% | -4.6% | -1.9% | ? | -11.4%
O=C(NCCOc1ccccc1F)c1ccccc1SCc1ccc(F)cc1 | 19.9% | -19.1% | ? | -7.1% | -17.7% | 0.7% | 8.0% | -25.1%
CN(Cc1ccco1)S(=O)(=O)c1nnc(NC(=O)c2cccc(Cl)c2)s1 | 1.2% | 42.1%&35.5%[activator] | nt | -2.6% | 1.7% | -19.3%[46.1 µM] | -0.7% | -6.2%
c1ccc(CN2CCc3[nH]c4ccccc4c3C2)cc1 | nt | -17.5% | ? | nt | nt | 4.5% | 15.8% | nt
CCOC(=O)CCC(NC(=O)CCCC(=O)NC(CCC(=O)OCC)C(=O)OCC)C(=O)OCC (stereo not drawn) | 20.9% | -23.4% | 28.3% | -1.0% | 3.7% | 7.7% | -8.0% | -0.9%
O=C1CN(C(=O)COC(=O)c2ccc(Cl)cc2)c2ccccc2N1 | nt | 9.8% | ? | nt | 0.6% | 4.0%[46.1 µM] | 2.1% | nt
CCCCOc1ccc(CNC(=O)CN2CCSc3ccccc32)cc1 | ? | -7.1% | nt | -11.0% | nt | 17.5%[46.1 µM] | nt | nt
O=C(COC(=O)Cc1ccc(S(=O)(=O)N2CCOCC2)s1)Nc1ccc(F)cc1F | nt | -12.3% | 1.6% | nt | -4.5% | -12.2% | 2.7% | nt
CCN(CC)CCn1c2c(c(SCC(=O)Nc3cc(C)ccc3C)nc1=O)CCC2 | nt | -4.3% | ? | nt | nt | 10.0% | 6.3% | nt
CSc1ccccc1NC(=O)c1ccco1 | 1.2% | -14.9% | 18.6% | -0.4% | -2.7% | 13.2% | 1.9% | -6.1%
CCOc1cc2[nH]c(=O)n(CCCN3CCN(c4ccc(OC)cc4)CC3)c(=O)c2cc1OCC | nt | -21.8% | 2.8%[46.1 µM] | nt | -1.1% | -3.5% | 3.0% | nt

3 of the compounds above, with two lines to a compound:
Below each compound – Cruzain noTriton | StopGo reporter | Marburg entry inh | Cruzain inh Det | SARS PLP yeast | LASV entry inh | RE007 growth inh | NS1 function inh
CCCCOc1ccc(CNC(=O)CN2CCSc3ccccc32)cc1
    ? | -7.1% | nt | -11.0% | nt | 17.5%[46.1 µM] | nt | nt
CCOc1cc2[nH]c(=O)n(CCCN3CCN(c4ccc(OC)cc4)CC3)c(=O)c2cc1OCC
    nt | -21.8% | 2.8%[46.1 µM] | nt | -1.1% | -3.5% | 3.0% | nt
CCN(CC)CCn1c2c(c(SCC(=O)Nc3cc(C)ccc3C)nc1=O)CCC2
    nt | -4.3% | ? | nt | nt | 10.0% | 6.3% | nt

Rows are unselected; 4.5% or so of the library scored in one or more.
